Screening data from PubChem.
Bead autofluor – compound fluorescence in toxin protease inhibitor counterscreen; fluorescence intensity (concentration not given with the values); compound autofluorescence counterscreen, microsphere flow cytometry; hits give high values; 3.1% of 360,000 active;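 active = at least 3 SD above the mean of all compounds, about 16000 in these data; inconclusive = too few beads counted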;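 also: 100 nL of 1 mM stock went into each well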
BJeLR lethal – kills HRASV12-expressing BJeLR cells. 0.17% of 300,000 active. AID 1554. inhibition, % (test concentration not listed). BJeLR (HRASV12) viability, CellTiter-Glo ATP luminescence, 48 h; reference of the scale not given here;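 active = replicate mean above 50%; inconclusive = above 50% but judged a plate artefact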;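 also: 50 nL library stock added to about 25 µL; numbers are from one replicate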
Sa RN4220 lethal – kills Staphylococcus aureus RN4220 | inhibition, % (concentration not given with the values) | S. aureus RN4220 growth, OD600, 16 h | 0.33% of 330,000 active;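 active = z-score of -3 or lower and OD600 up to 0.18 on both plates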;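 also: plate controls were untreated cells for no effect and reference antibiotic for full effect; stock transfer was 100 nL into about 80 µL; one replicate is shown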
PrP 5UTR inh – suppresses PrP 5' UTR mRNA reporter expression | cell-based PrP 5' UTR mRNA reporter, plate reader | inhibition, % (test concentration not listed) | 0.35% of 340,000 active;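 active = every replicate at 50% or more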;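 also: 0 = median of the neutral control wells; tested in H4 reporter cells; numbers are from one replicate; inactives centre near -14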
Sa ugtP lethal – kills S. aureus RN4220 lacking UgtP; S. aureus RN4220 ugtP deletion, OD600 growth, 16 h; some inactives read as strong as hits; growth inhibition, % (no concentration beside the values); 0.54% of 330,000 active; AID 1259309;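 active = z-score under -3 and OD600 up to 0.15 on both plates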;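 also: plate controls were untreated wells for no effect and antibiotic for full effect; wells of about 80 µL received 100 nL stock; the first replicate is given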
Mtb hypoxia rep – reduces hypoxia-regulated biosensor signal in M. tuberculosis. M. tuberculosis hypoxia-regulated fluorescent reporter, fluorescence. fluorescence inhibition, % (test concentration not listed). 0.1% of 300,000 active. AID 1159583;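 active = 35 to 45% if threefold the growth effect, above 45% if 1.5-fold the growth effect; inactive = the rest, general growth blockers included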;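 also: wells of about 50 µL received 100 nL stock; 0% = vehicle wells and 100% = reference inhibitor wells; whole bacteria with a GFP reporter of the hypoxia response; strong numbers were not always called active; many hits fall short of the cut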
Mtb hypoxia rep growth – also measured in Mtb hypoxia rep; calls as there; growth inhibition, %; measured here: M. tuberculosis growth (absorbance);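 0% = vehicle and 100% = reference antibiotic; read after six days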
The depositor's hits bear a star; ? = inconclusive; nt = not tested or not shown. Rows were taken by chance. Share with any hit: about 3.9%.

SMILES	Bead autofluor	BJeLR lethal	Sa RN4220 lethal	PrP 5UTR inh	Sa ugtP lethal	Mtb hypoxia rep	Mtb hypoxia rep growth
CC(C)C(=O)NC(c1cccs1)c1cc([N+](=O)[O-])c2cccnc2c1O (centres undefined)	10538	0	68	-13	76	8	2
CSCCC(NC(=O)c1ccccc1)C(=O)NNC(=O)c1csc(N2CCOCC2)n1 (centres undefined)	5703	-5	-1.3	-20	1	-1	4
Cc1ccc(N2CCN(S(=O)(=O)N3CCOCC3)CC2)cc1C	4544	-1	2.0	-11	3	2	1
CCCC(C(=O)NC1CCCC1)N(C(=O)Cn1nnc(-c2ccc(C)o2)n1)c1cccc(O)c1 (centres undefined)	4224	-1	-3.9	0	2	13	4
Nc1nc(SCCOc2ccccc2)n[nH]1	6950	-1	1.6	-22	3	8	5
CCN(CC)C(=O)CCc1nnc(Cc2cccc(C(F)(F)F)c2)o1	3569	-2	2.0	-53	2	4	1
CCOC(=O)C1CCCN(C(=O)Cc2ccc(Cl)cc2)C1 (centres undefined)	2699	6	-2.0	-15	8	nt	nt
CN1/C(=C\C(=O)c2cncc(Br)c2)C(C)(C)c2ccccc21	2614	4	3.7	-14	1	-7	-3
O=C(CCNS(=O)(=O)c1ccc(Br)s1)N1CCCCC1	4329	1	2.4	-4	-14	nt	nt
CC1CCCN(C(=O)COC(=O)c2ccc(=O)n(Cc3ccccc3)n2)C1 (centres undefined)	?	4	1.4	-1	0	3	-8
CC1CCN(C(=O)c2nc[nH]c2C(=O)N2CCc3ccccc3C2)CC1	3746	nt	3.9	-23	-4	6	10
COc1ccc(N2CCN(C(=O)CSc3ncccc3-c3nc4ccccc4[nH]3)CC2)cc1	20130*	21	0.4	-10	1	3	3
O=C(c1ncc[nH]1)c1cccs1	3949	5	4.1	-14	7	9	16
c1ccc(-c2noc(-c3cccnc3)n2)cc1	6596	-1	7.4	-96	6	21	7
Cc1ccc(/C(O)=C2/C(=O)C(=O)N(Cc3cccnc3)C2c2ccccn2)cc1 (centres undefined)	3486	3	6.8	5	12	4	-1
O=C(COC(=O)c1ccccn1)Nc1c(Cl)cccc1Cl	3827	8	3.5	1	-3	5	-1
COc1ccccc1CC1S/C(=N/N=C/c2ccco2)NC1=O (centres undefined)	4255	1	nt	-48	nt	nt	nt
CC(=O)N1CCN(S(=O)(=O)c2cccc(C(=O)N(Cc3ccccc3)c3ccc(C)cc3)c2)CC1	?	-5	2.3	-6	4	-7	-4
CCOC(=O)c1c(C)[nH]c(C)c1C(=O)Cn1nnc(-c2ccccc2C)n1	3119	-4	10	-14	-8	11	8
CC(=O)Nc1c(-c2ccc3ccccc3c2)nc2ccccn12	3012	-2	2.8	-52	12	6	-6
COc1nnc(-c2ccc(C)cc2)c2ccccc12	2938	9	4.5	-28	-2	4	15
CC(C)n1nc(C(=O)Oc2ccc(Cl)cc2)c2ccccc2c1=O	7481	9	3.6	-22	8	13	3
CC(C)CC(NC(=O)c1[nH]cnc1C(=O)NC(Cc1ccccc1)C(=O)OC(C)(C)C)C(=O)OC(C)(C)C (centres undefined)	nt	nt	6.5	nt	2	15	8
COc1ccc(N=Nc2nc(-c3ccccc3)c(-c3ccccc3)[nH]2)cc1	2268	-8	-11	6	-5	10	-9
CN1C(=O)C(=Cc2sc(=O)n(-c3ccccc3)c2N2CCCCC2)C(=O)N(C)C1=O	10088	12	4.6	-17	7	1	-3
COCCCN1CC(=O)N2C(c3cccc(OC)c3OC)c3[nH]c4ccccc4c3C[C@H]2C1=O (some centres undefined)	3832	2	0.6	-5	11	-7	6
CCc1cc2c(COC(=O)c3cc(S(=O)(=O)N4CCOCC4)ccc3F)cc(=O)oc2cc1O	6484	nt	-0.7	-6	1	13	30
COc1cccc(NC(=O)CSc2nccn2-c2cccc(OC)c2)c1	2475	8	1.6	-17	2	nt	nt
Cc1ccc(S(=O)(=O)N2CCC(C(=O)OCC(=O)N3CCCC3=O)CC2)cc1C	nt	2	1.1	-8	2	6	3
CCOC(=O)c1[nH]c2ccc(OC)cc2c1NC(=O)CCN1CCC(C)CC1	nt	2	1.0	nt	5	nt	nt

Full records, quoted from the list. Order of values: Bead autofluor | BJeLR lethal | Sa RN4220 lethal | PrP 5UTR inh | Sa ugtP lethal | Mtb hypoxia rep | Mtb hypoxia rep growth
CC(C)n1nc(C(=O)Oc2ccc(Cl)cc2)c2ccccc2c1=O in the list: 7481 | 9 | 3.6 | -22 | 8 | 13 | 3
COCCCN1CC(=O)N2C(c3cccc(OC)c3OC)c3[nH]c4ccccc4c3C[C@H]2C1=O (some centres undefined) in the list: 3832 | 2 | 0.6 | -5 | 11 | -7 | 6
CC(=O)N1CCN(S(=O)(=O)c2cccc(C(=O)N(Cc3ccccc3)c3ccc(C)cc3)c2)CC1 in the list: ? | -5 | 2.3 | -6 | 4 | -7 | -4
CC(C)CC(NC(=O)c1[nH]cnc1C(=O)NC(Cc1ccccc1)C(=O)OC(C)(C)C)C(=O)OC(C)(C)C (centres undefined) in the list: nt | nt | 6.5 | nt | 2 | 15 | 8
COc1ccc(N=Nc2nc(-c3ccccc3)c(-c3ccccc3)[nH]2)cc1 in the list: 2268 | -8 | -11 | 6 | -5 | 10 | -9

(cont.)
SMILES	Bead autofluor	BJeLR lethal	Sa RN4220 lethal	PrP 5UTR inh	Sa ugtP lethal	Mtb hypoxia rep	Mtb hypoxia rep growth
CC12CCCCN1CCCc1c2[nH]c2ccccc12 (centres undefined)	10381	2	3.1	14	1	-3	-2
Cc1nnc(NC(=O)c2ccc(S(=O)(=O)N3CCCCC3)cc2)s1	4002	nt	4.0	-19	10	9	3
Cc1nn2cc(-c3ccccc3)nc2s1	8985	1	11	-79	-2	-4	1
CCC1=C(OC(=O)N(CC)CC)N2C(=O)OC(=NCC(=O)OC)[C@]2(Cc2ccccc2)C2C1=CCC1C(=O)N(CC(=O)OC)C(=O)C12 (some centres undefined)	nt	nt	8.5	nt	1	4	1
COc1cccc(C(=O)Oc2cc(C)[nH]c(=O)c2[N+](=O)[O-])c1OC	6030	4	3.9	-16	16	5	8
CC12CCC(C(=O)O)(c3nc(C#N)c(C#N)nc31)C2(C)C (centres undefined)	10696	1	5.3	5	2	-4	9
Cc1ccc2c(CC(=O)Nc3nc(C)cs3)coc2c1	9451	-11	0.7	-14	-5	0	0
O=C(Cn1ccc2ccccc2c1=O)N1CCN(Cc2ccc3c(c2)OCO3)CC1	4041	0	-0.3	-3	4	nt	nt
COc1cc2cc(Oc3ccc4ccc(=O)oc4c3)c(=O)oc2cc1OC1OC(CO)C(O)C(O)C1O (centres undefined)	nt	nt	0.9	nt	1	10	12
COc1ccc(-c2cc(C(=O)Nc3cccc(O)c3)no2)cc1	3563	-3	2.0	27	-4	4	1
C[C@@H]1CN([C@@H](C)CO)C(=O)c2cc(NC(=O)Nc3ccccc3)ccc2O[C@H]1CN(C)C(=O)Nc1cccc2ccccc12	4028	nt	-19	-11	-4	-3	3
FC(F)(F)c1cccc(N2CCN(C(=S)NC3CCCC3)CC2)c1	3247	9	-4.0	-22	-13	8	10
CC(C)NC(=O)c1ccc(N2CC3CC(C2)c2cccc(=O)n2C3)c([N+](=O)[O-])c1 (centres undefined)	4030	8	-1.0	-22	-2	-3	5
O=C(NCc1ccco1)/C(=C/c1cccnc1)NC(=O)c1cccc(Br)c1	?	-4	3.8	-27	2	15	5
O=c1ccc2ccc(OCCOc3cccc(Cl)c3)cc2o1	?	-13	6.2	4	-9	-5	1
CN(C)c1ccc(/C=[N+](\[O-])C(C)(C)/C=N/O)cc1	10628	-4	nt	-11	nt	nt	nt
CCCCC(CCCCl)C(=O)Nc1ccccc1 (centres undefined)	2138	0	1.0	-15	11	4	4
COc1ccc(-c2nc(CN3CCC(C(=O)NC4CCCC4)CC3)c(C)o2)cc1OC	5828	2	1.0	-30	1	4	5
O=C(OCc1ccccc1)/C(=C/c1ccccc1Cl)NC(=O)c1ccco1	5930	-6	-1.2	-15	15	14	4
CN(Cc1nc(-c2cccnc2)no1)S(=O)(=O)c1ccccc1	2859	-8	-4.5	-20	-3	nt	nt
Cc1cc(C(=O)NCC2COc3ccccc3O2)c2ccccc2n1 (centres undefined)	4158	2	11	-33	5	20	12
CC(C)C(=O)N1CCN(c2ccc(NC(=O)c3ccc4c(c3)OCCO4)cc2Cl)CC1	16164*	16	6.2	-32	0	0	8
COc1ccc(-n2c(=S)[nH]c3sc(-c4ccccc4)cc3c2=O)c(OC)c1	3862	7	-0.6	-3	6	20	0
Cc1nnc(SCCC#N)n(CCC#N)c1=O	3092	5	-7.8	-12	-1	18	6
COc1ccc(Cl)cc1NC(=O)C/C(C)=N/NC(=O)c1ccccc1[N+](=O)[O-]	3438	-1	nt	-17	nt	nt	nt
NC(Cc1ccc([N+](=O)[O-])cc1)=NOC(=O)C1CCCCC1	nt	nt	-1.9	nt	3	7	-2
CC(=O)N1CCc2ccc(S(=O)(=O)N3CC(C)OC(C)C3)cc21 (centres undefined)	2106	12	6.4	-13	2	16	3
CCOc1cc(C2NC(=O)c3ccccc3O2)ccc1OC (centres undefined)	3480	-3	3.6	-18	13	10	15
Cc1cc(C)nc(NC(=O)c2cccs2)n1	4460	4	-0.3	-9	4	8	-1
CC(C)(C)c1ccc(N2C(=O)CC(C/C=C/c3ccccc3)C2=O)cc1 (centres undefined)	5754	11	4.7	-18	7	9	12
Cc1cc(=O)cc(C)n1-c1ccccc1Br	3349	0	4.0	-21	9	2	2
Cc1nc2c(nnn2Cc2c(Cl)cccc2Cl)c(=O)[nH]1	nt	-3	3.7	9	3	13	3
CCOc1ccc(S(=O)(=O)N2CCN(C)CC2)cc1NC(=O)c1ccccc1F	5619	12	2.6	2	0	-11	-9
CSc1nc2c(c(=O)[nH]1)C(c1ccc(F)cc1)CC(=O)N2 (centres undefined)	2479	2	5.1	-18	0	2	6
O=C(NCc1nnc(SCC(=O)N2CCCC2)o1)c1ccco1	2276	0	4.4	-21	9	2	0
COc1ccc(OC)c(NC(=O)c2ccno2)c1	4203	-5	1.1	-22	7	12	4
Cc1c2cnn(CC(=O)Nc3c(F)c(F)cc(F)c3F)c(=O)c2c(C)n1Cc1ccccc1F	4234	3	5.8	-10	-5	6	-4
O=C(NCc1ccccc1F)c1cccc(S(=O)(=O)N2CCCCCC2)c1	?	nt	1.2	nt	8	1	-2
Nc1nnc(SCC(=O)OCC(=O)Nc2ccccc2F)s1	3231	-8	3.3	-29	4	14	10
CCOc1ccc(/C=C2\CCCc3c2nc2ccccc2c3C(=O)O)cc1OC	5840	-8	nt	2	nt	nt	nt
CCOc1ccc(S(=O)(=O)N2CCCC(C(=O)NCc3ccccn3)C2)cc1Cl (centres undefined)	?	-1	2.4	-46	5	5	-8
Cc1cc(=O)oc2c(C)c(OC3CCCCC3=O)ccc12 (centres undefined)	3831	-2	2.6	-10	-1	6	-1
Cc1cc(=O)nc2c3ccccc3n(CC(=O)NCCCN3CCCCC3C)n12 (centres undefined)	5770	-14	5.9	-3	5	3	1
CCOc1ccc2oc(-c3ccccc3)c(C(=O)N3CCN(CCO)CC3)c2c1	2144	nt	-0.6	41	-1	nt	nt
CCCCn1c(N)c(N(CCOC)C(=O)c2cccc(-n3cnnn3)c2)c(=O)[nH]c1=O	?	-5	-0.3	-16	2	-7	7
COc1ccc(Cc2n[nH]c(=S)n2C)cc1Br	3369	-4	1.5	-17	0	6	-2
Cc1cc(C(=O)NN=Cc2ccccn2)n[nH]1	nt	nt	-2.3	nt	0	2	-2
CO/N=C(\CS(=O)(=O)Cc1ccc(OC)cc1)c1ccc(Cl)cc1	8524	-7	nt	5	nt	nt	nt
CCOC(=O)C1=C(C)NC2=C(C(=O)CCC2)C1c1cn(Cc2ccc(Cl)cc2Cl)nc1-c1ccccc1 (centres undefined)	5250	3	48	-10	6	nt	nt
CCN(CC)CCNC(=O)C(=O)Nc1cc2c3c(c1)CCC(=O)N3CCC2	5399	4	-1.3	9	-2	-7	9
CCn1c(C(=O)N2CCC(C(=O)N3CCC4(CC3)OCCO4)CC2)cc2sccc21	10429	nt	2.1	-16	4	2	5
Cc1cc(Cl)ccc1OCCCC(=O)NCCc1nnc2ccccn12	5661	-16	1.9	6	-4	-4	18
Nc1ncnc2c1nc(Br)n2[C@@H]1O[C@@H]2COP(=O)(O)O[C@H]2[C@H]1O	4314	13	nt	-8	nt	nt	nt
Cc1ccccc1C(=O)N1CCN(c2ccc(NC(=O)CSc3ccc(Cl)cc3)cc2)CC1	2798	3	-1.3	21	-8	-1	0
Cc1ccc(S(=O)(=O)N(C)N=Cc2ccc(C(=O)O)cc2)cc1	nt	nt	5.4	nt	8	14	12
